Assay outcomes deposited in PubChem BioAssay by several laboratories.
CSC inhib: blocks cancer stem cells. cancer stem cell-like cells viability, luminescence. inhibition, % at 7.5 µM. 300,000 compounds, 1.1% hits. AID 2717;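 active = mean at 75% or more and at least half the replicates too; inconclusive = mean and replicates disagree; tested in HMLE shEcad cells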;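 note: 0% = median of negative and 100% = median of positive control wells; the first replicate is given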
Env fusion inh: HIV envelope-mediated fusion inhibition; HeLa-JRFL Env/CEM21 cell fusion, luciferase; inhibition, % at 12.3 µM; 360,000 compounds, 1.1% hits;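 active = mean replicate inhibition score of at least 50 and every replicate individually at or above 50; inconclusive = only one of the two criteria met; inactive = mean below 50 and not all replicates reaching 50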;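 note: 0% = plate neutral controls and 100% = maraviroc near 300 nM; one replicate is shown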
eIF4H inh: inhibitors of RNA binding by human eIF4H | 290,000 compounds, 0.94% hits | eIF4H fluorescence polarization binding assay | Q15056 | inhibition, % at 35 µM;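 active = 50% or more with normal probe brightness, or confirmed in later tests; inconclusive = above 50% with abnormal brightness, or retests that disagree; inactive = below 50% or failed in later tests; about a fifth of its hits are not listed in these tables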;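 note: calls also rest on retests at 20 µM and on dose response follow-up; 0% = protein and probe with vehicle and 100% = probe without protein; strong numbers were not always called active; many hits fall short of the cut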
MT1-MMP act inh: blocks activation of human MT1-MMP. P50281. HT1080 RFP-PRO-GFP cells, GFP/RFP ratio fluorescence, overnight; percent of plate control window, DMSO zero. GFP/RFP ratio change, % at 20 µM. 360,000 compounds, 0.061% hits;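 active = GFP/RFP ratio change of at least 30% with cell ATP level not reduced by more than half and red fluorescence within 50% of control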; note: strong numbers were not always called active
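Material – HT1080 RFP-PRO-GFP cells · Control set – DMSO wells and RFP-L50D-GFP cells · Incubation – overnight cell settling, then overnight compound exposure, 37 °C, 5% CO2 · Compound dosing – single-point 20 µM compound, 1% DMSO · Read-out – GFP/RFP fluorescence ratio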
PABP FP inh: blocks human PABP binding to poly(A) RNA. P11940. fluorescence polarization. inhibition, % at 35 µM. 290,000 compounds, 1% hits;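 active = 50% or more with normal probe brightness, or confirmed in later tests; inconclusive = above 50% with abnormal brightness, or retests that disagree; inactive = below 50% or failed in later tests; about a fifth of its hits are not listed in these tables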;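 note: calls also rest on retests at 20 µM and on dose response follow-up; controls were probe without protein and protein plus probe with vehicle; some compounds called inactive have numbers as strong as hits; many hits fall short of the cut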
Target sequence (P11940 whole entry, looked up): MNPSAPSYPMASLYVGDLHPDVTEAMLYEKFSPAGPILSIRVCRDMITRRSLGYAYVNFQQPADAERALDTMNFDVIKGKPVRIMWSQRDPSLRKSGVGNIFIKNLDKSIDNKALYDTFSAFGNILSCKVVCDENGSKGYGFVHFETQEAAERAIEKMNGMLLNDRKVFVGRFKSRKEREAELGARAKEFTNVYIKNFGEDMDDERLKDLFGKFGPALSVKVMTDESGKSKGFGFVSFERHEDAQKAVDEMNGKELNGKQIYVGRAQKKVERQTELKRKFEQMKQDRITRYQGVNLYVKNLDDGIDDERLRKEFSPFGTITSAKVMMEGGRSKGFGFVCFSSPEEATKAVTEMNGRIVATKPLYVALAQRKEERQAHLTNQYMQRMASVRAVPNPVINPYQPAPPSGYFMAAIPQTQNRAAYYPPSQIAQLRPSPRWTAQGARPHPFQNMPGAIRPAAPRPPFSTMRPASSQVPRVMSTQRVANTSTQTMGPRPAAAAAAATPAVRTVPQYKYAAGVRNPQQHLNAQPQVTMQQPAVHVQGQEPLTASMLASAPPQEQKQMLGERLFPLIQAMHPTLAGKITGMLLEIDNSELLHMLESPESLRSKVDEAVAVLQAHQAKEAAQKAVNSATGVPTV
UUG fidelity: modulators of start codon recognition fidelity in yeast; S. cerevisiae UUG-firefly luciferase reporter, luminescence/redox ratio; activity score, % at 18.7 µM; 350,000 compounds, 0.13% hits; AID 602363;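 active = replicate mean at a twofold rise or more, about +100% in these data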;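 note: firefly luciferase made from a UUG start codon reports start codon fidelity; reporter light over untreated wells divided by growth signal over untreated wells; some hits fall short of that in this replicate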
Rce1 inhib: inhibitors of yeast Ras-converting enzyme. AID 2563. Q03530. calls only. 290,000 compounds, 0.27% hits. yeast membranes, quenched prenylated peptide cleavage fluorescence;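 active = fall in fluorescence gain of 50% or more versus controls, with final raw signal at or below 3038400; inconclusive = same 50% fall but final raw signal above 3038400; inactive = fall in fluorescence gain under 50%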;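 note: plate controls were neutral control wells for no effect and wells lacking membranes for full effect; tested at 10 µM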
eIF4H inh retest: also measured in eIF4H inh; calls as there; inhibition, %; compound at 20 µM; confirmation average;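 mean of two retest wells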
PABP FP inh retest: second read-out of PABP FP inh, no call of its own (marks repeat the call); inhibition, %; compound at 20 µM; confirmation repeats;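 mean of two retest wells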
MT1-MMP act inh RFP: second read-out of MT1-MMP act inh, no call of its own (marks repeat the call); RFP signal change, %; measured here: RFP expression control read;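 0 = vehicle wells; hits needed this value within 50% of zero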
Active calls of the source: *; i = inactive; ? = inconclusive; / = no result given; & = joins results of further samples; [ ] = another dose, or the depositor's remark. An unsorted share of the library; overall some 3% were active at least once.

SMILES	CSC inhib	Env fusion inh	eIF4H inh	MT1-MMP act inh	MT1-MMP act inh RFP	PABP FP inh	UUG fidelity	Rce1 inhib	others
CCOc1ccc(OCC)c(NC(=O)CSCC(=O)O)c1	-8	18	83	1	3	16	/	i	eIF4H inh retest=-18;PABP FP inh retest=5
COc1ccccc1NS(=O)(=O)c1ccc2c(c1)NC(=O)CC(=O)N2	-5	-5	-3	0	1	-6	/	i
O=C(CN1C(=O)c2ccccc2S1(=O)=O)N1CCCCC1	-10	-18	7	-2	0	-1	-16	i
COc1ccc(N(C(C)C(=O)N(C)Cc2ccccc2)S(C)(=O)=O)cc1 (configuration not stated)	-12	1	1	4	2	7	-18	i
O=C(NC1(C(F)(F)F)N=C2SCCN2C1=O)c1ccccc1F (configuration not stated)	-8	-3	-4	2	1	4	-16	i
COc1cccc(OCc2cc(C(=O)N(C)CCOc3ccc(C)cc3)no2)c1	/	4	-7	1	1	3	-22	i
CCNC(=O)CC1SC(=Nc2ccc(C)cc2)N(CC)C1=O (configuration not stated)	-18	-28	-11	0	-2	-12	-21	i
COc1cccc(N(C(=O)Cn2nnc(-c3ccc(C)o3)n2)C(C(=O)NC2CCCC2)c2ccncc2)c1 (configuration not stated)	-5	1	-2	-1	2	11	-17	i
CCCn1c(SCC(=O)Nc2ccc(Cl)cc2F)nc(O)cc1=O	16	-1	/	3	0	/	-13	/
Cc1nnc(SCC(=O)Nc2cc(Cl)ccc2Cl)n1CC1CCCO1 (configuration not stated)	-17	8	5	-4	1	-8	-15	/
COC(=O)C1=C(C)N(Cc2ccccc2)C(=NCC(C)C)N[C@H]1c1cccc(C(F)(F)F)c1	31	/	/	0	-7	/	-7	/
COCCn1c(SCC(=O)Nc2ccccc2OC)nc2ccccc2c1=O	-7	11	6	-2	-2	-2	8	i
O=C(c1ccccc1Cl)N1CCC(n2cccc2)CC1	-9	-7	-8	-1	1	7	/	i
CCc1c(O)cc2n(c1=O)-c1ccc(Cl)cc1C2(C)C	/	/	5	1	-1	1	-4	/
O=C(NCc1ccncc1)c1cccc(Cn2cc(Br)cn2)c1	-8	/	-1	-1	-7	2	-10	i
CCOc1cc(N2CCOCC2)c(OCC)cc1NC(=O)c1cccc(S(=O)(=O)N2CC(C)OC(C)C2)c1 (configuration not stated)	/	?	/	-1	0	/	-5	/
CCn1cc(S(=O)(=O)CC(=O)Nc2ccc3c(c2)OCO3)c2ccccc21	-16	10	8	1	1	13	-4	i
COC(=O)C1=C(C)NC2=C(C(=O)c3ccccc32)C1c1ccc(-c2ccc(C(=O)O)cc2)o1 (configuration not stated)	-6	/	10	-30	-4	34	-17	i
CCCN(CCC)CCNC(=O)C1CCCN(S(=O)(=O)c2ccc3c(c2)oc(=O)n3C)C1 (configuration not stated)	-15	-14	2	2	3	-5	-9	i
CCN(CC)S(=O)(=O)c1ccc2[nH]c(=O)cc(C(=O)Nc3cccc(C(C)=O)c3)c2c1	/	-7	3	1	-2	-10	/	i
COC(=O)c1c(-c2ccccc2)csc1NC(=O)C1CC=CCC1C(=O)O (configuration not stated)	-19	1	-3	-5	-4	-2	/	i
O=C1CCCC(c2ccccc2)N1 (configuration not stated)	4	/	-7	-1	3	8	/	i
Cc1cccc(N(CC(=O)NC2CCCC2)C(=O)CNC(=O)c2ccco2)c1C	2	6	11	-1	-3	-8	53	i
CCOC(=O)C1CCCN(CC(=O)Nc2cc(C)cc(C)c2)C1 (configuration not stated)	-9	1	-10	-4	1	-1	/	i
NC(Cc1c[nH]c2ccc(OCc3ccccc3)cc12)C(=O)O (configuration not stated)	1	-12	6	0	2	10	21	i

(more compounds)
SMILES	CSC inhib	Env fusion inh	eIF4H inh	MT1-MMP act inh	MT1-MMP act inh RFP	PABP FP inh	UUG fidelity	Rce1 inhib	others
CCS(=O)(=O)N1CCC(C(=O)NCCc2ccc(C)cc2)CC1	-9	/	-3	13	-1	-2	1	i
Cc1cccc(OCCCC(=O)O)c1	-9	/	-6	1	2	6	-10	i
CN1CCN(/C(=N\O)c2nonc2N)CC1	/	2	-4	-3	-13	3	/	i
CCN(CC)S(=O)(=O)c1cc(NS(=O)(=O)c2ccc(Cl)c(C(=O)O)c2)ccc1C	-14	3	-1	1	3	8	-7	i
CCOC(=O)c1sc2nc(CC(=O)OC)nc(NCc3ccco3)c2c1C	/	/	122	-52	34	118	-5	i	eIF4H inh retest=-2;PABP FP inh retest=5
Cc1cccc(OCc2n[nH]c(=S)o2)c1	-12	-49	-4	3	1	5	-11	i
Fc1ccc(CSc2nnc(-c3cccs3)o2)cc1	-2	/	-7	6	0	-5	/	i
Cc1ccc(OCC(=O)Nc2ccc(C(N)=O)cc2)cc1	-4	-3	3	2	4	5	-8	i
CCCNC(=O)CN1C(=O)COc2ccc(S(=O)(=O)N3CC(C)CC(C)C3)cc21 (configuration not stated)	-6	44	3	2	3	11	-5	i
CCn1c(CNC(=O)c2ccccc2F)nnc1SCC(=O)NC1CCCCC1C (configuration not stated)	1	16	-10	-1	3	20	/	/
Cc1c(Cl)cccc1Nc1ncccc1C(=O)OCC(O)CO (configuration not stated)	-14	/	4	/	/	10	/	i
CCOC(=O)c1ccc(NC(=O)CN2C(=O)C3C4C=CC(C4)C3C2=O)cc1 (configuration not stated)	-5	-56	-7	0	-3	0	-17	i
COc1ccc(C(=O)COC(=O)CSCc2c(C)noc2C)cc1OC	0	/	5	5	1	0	/	i
COc1ccc(N2CCN(C(=O)Cc3ccc(S(=O)(=O)N4CCOCC4)s3)CC2)cc1	-12	10	34	-13	3	-1	/	i
O=C(NCC1CCCO1)C1CCCN(S(=O)(=O)c2cccc(C(F)(F)F)c2)C1 (configuration not stated)	2	-10	-7	1	6	5	-18	/
C=CCN(CC=C)c1nc2ccccc2nc1C(C#N)C(=O)OC(C)C (configuration not stated)	-7	/	?	-20	11	?	21	i
CCN(CCCNC(=O)Cn1ncc2c([nH]c3ccc(C)cc32)c1=O)Cc1ccccc1	10	1	-9	1	3	-3	-3	i
CCCCN=C(NNc1ccc(Br)cc1)C(=O)OCC	136*	-7	-7	1	4	-25	/	i
OCCC1CN(Cc2ccccc2OC2CCCC2)CCN1Cc1ccsc1 (configuration not stated)	5	-35	-8	-4	-2	-4	/	i
O=C(c1ccc(N2CCCC2=O)cc1)N1CCN(c2ccccc2)CC1	-12	-40	-4	7	4	-9	-15	i
COc1ccccc1-c1noc(CCC(=O)N2CCN(c3cc(C)ccc3C)CC2)n1	/	1	/	0	-4	/	3	/
Fc1ccc2nc(-c3ccccc3)ccc2c1	/	-102	/	2	-4	/	-7	/
CCOc1ccc(S(=O)(=O)NCCCN2CCOCC2)cc1	4	/	8	-1	0	6	-19	i
CC1CCN(c2ccc3nnc(CCC(=O)N4CCCCC4)n3n2)CC1	-3	5	0	-2	0	0	-12	i
Cc1ccc(C(=O)N2CCCC2)cc1S(=O)(=O)N1CCCCC1	4	/	-9	-1	2	-4	3	i

Next part (three carried over from the part before).
SMILES	CSC inhib	Env fusion inh	eIF4H inh	MT1-MMP act inh	MT1-MMP act inh RFP	PABP FP inh	UUG fidelity	Rce1 inhib	others
CCOc1ccc(S(=O)(=O)NCCCN2CCOCC2)cc1	4	/	8	-1	0	6	-19	i
CC1CCN(c2ccc3nnc(CCC(=O)N4CCCCC4)n3n2)CC1	-3	5	0	-2	0	0	-12	i
Cc1ccc(C(=O)N2CCCC2)cc1S(=O)(=O)N1CCCCC1	4	/	-9	-1	2	-4	3	i
O=C(NCc1ccc(Cl)cc1)c1ccc(S(=O)(=O)N2CCCCC2)cc1	-11	-15	/	5	-4	/	-16	/
CCn1c(SCC(=O)Nc2ccc(C)cc2)nc2nc3c(cc2c1=O)CCCC3	-5	10	2	0	-11	3	5	i
COc1cccc(-c2ccc3c(c2)O[C@H](CN(C)C(=O)c2ccccc2F)[C@H](C)CN([C@H](C)CO)S3(=O)=O)c1	/	9&19[16.7 µM]	/	-6	-6	/	-1&-3&25	/
CCOC(=O)N1CC=C2C(C#N)=C(N)C(C#N)(C#N)[C@H](c3cccs3)C2C1 (some centres not stated)	-17	-25	?	-40	18	4	-17	i
CCCNC(=O)c1ccc(N2CCC3(CC2)CC(c2cccc(Br)c2)=NO3)c(NC(=O)c2c(Cl)cccc2Cl)c1	12	27	/	5	0	/	-8	i
Cc1ccc(NC(=O)COC(=O)CCc2ccc(S(=O)(=O)N3CCOCC3)cc2)c(C)c1	-10	6	4	0	5	-16	/	i
COc1ccccc1C(C(=O)NC1CCCCC1)N(C(=O)c1csnn1)C1CC1 (configuration not stated)	-1	-5	-4	1	5	2	-3	i
CCC(C(=O)O)n1cnc2scc(-c3ccc(C)c(C)c3)c2c1=O (configuration not stated)	-5	-1	2	1	-1	11	-9	i
COC(=O)c1ccc2c(c1)NC(=O)C(N1CCCC1)S2 (configuration not stated)	-9	-3	44	-12	4	16	0	/
O=C(CN1C(=O)NC2(CCCCC2)C1=O)NNC(=O)C1CC1	-9	-20	/	11	-2	/	-8	/
O=C(O)c1cccc(NS(=O)(=O)c2ccc3c(c2)OCCCO3)c1	/	7	-2	2	4	32	-25	i
Cc1nn(-c2ccccc2)c(Cl)c1/C=N/Nc1nc2ccccc2n1C	25	-53	11	7	-8	0	/	i
Cn1c(SCC(=O)N/N=C/C=C/c2ccccc2[N+](=O)[O-])nc2ccccc21	/	-2	-1	-1	5	-6	/	i
NNC(=S)NC1CCCCC1	-10	11	-7	1	1	-6	-33	i
CC(C)CNC(=O)c1cccc(NC(=O)COc2ccc([N+](=O)[O-])cc2)c1	-31	27	-2	4	-12	1	/	i
COc1cccc(NC(=O)Cc2nnc(SCC(=O)NC3=NCCS3)n2C)c1	1	3	5	1	2	-1	/	i
CCC(C)(C)NC(=O)C(c1ccc(OC)cc1)N(Cc1cccs1)C(=O)CCC(=O)Nc1cc(C)on1 (configuration not stated)	-5	/	0	-4	-5	14	0	/
CCC(=O)Nc1nonc1-c1nc2ccccc2n1N(C(=O)CC)C(=O)CC	11	33	7	-4	1	5	-10	i
COc1cccc2oc3cc(C#CC4(O)CCCCC4)ccc3c(=O)c12	23	-313	-4	2	-3	-8	-56	i
Cc1cc(C)c(C#N)c(SCc2cn3ccccc3n2)n1	-13	-9	10	4	3	-12	/	i
CCOC(=O)c1cc2c(=O)n3ccccc3nc2n(CC2CCCO2)c1=NC(=O)/C=C/c1ccccc1 (configuration not stated)	4	16	22	13	-6	0	-8	/
O=C(NCCN1CCCC1)C1(S(=O)(=O)c2ccc(Cl)cc2)CC1	-23	/	0	0	-1	-7	-12	i
O=C(c1ccc(F)cc1)N1CCN(Cc2ccccc2Br)CC1	-6	/	-1	-2	2	6	-5	i
Cc1ccnc2nc(C(=O)OCC(=O)Nc3ccccc3C(C)(C)C)nn12	5	-4	1	5	2	-2	-8	i
Cc1cc(C)n(C(=O)c2ccccc2[N+](=O)[O-])n1	-6	-13	-10	-5	-8	-2	/	i
CCCCn1c(=O)[nH]c(=O)c2c1nc(COC(=O)c1c(C)noc1C)n2CCC	-4	-34	-4	-3	-2	5	-21	i
Cc1ccc2c(c1)C(c1ccncc1)=NNC(c1ccccc1)=N2	-15	-6	-2	-1	2	-4	-21	i
Cc1cc(/C=N/NC(=O)c2ccoc2C)cc(C)c1O	/	-408	/	1	1	/	-32	/
